High-throughput results from PubChem.
PKD1 inh: blocks activity of human protein kinase D1; Q15139; PKD1 kinase fluorescence polarization assay; inhibition, %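 (about 10 µM by stock and volumes)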; 200,000 tested, 0.056% active;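 active = inhibition of 50% or more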;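 note: controls were vehicle for no effect and a reference inhibitor for full effect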
Insulin prom inh: TRM-6 insulin promoter activity inhibition; TRM-6 cells (human fetal islet line), insulin promoter-eGFP reporter, imaging; reporter expression induced with tamoxifen; inhibition, % at 2 µM; 130,000 tested, 0.9% active;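 active = inhibition above the mean plus 3 SD, with well images judged a real hit on visual review, cut at about 60% in these data, passing the limit was not always enough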
HSV replic up: increases HSV replication in cells; HSV replication augmentation in cells, fold increase; maximum fold increase; 220,000 tested, 0.005% active;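 active = peak rise of 1.5-fold or more in the series; tested in PC3 cells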;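 note: first round at 10 µM; read as green reporter fluorescence; hits show the peak of a series up to 25 µM; 1 = signal of infected wells without compound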
RGS16-Gao HTS: RGS16-Galphao interaction regulator (human) | bead-based flow cytometry RGS16-Galphao binding, fluorescence; actives lie on both sides | O15492+P09471 | binding response (% of control), % at 10 µM | 220,000 tested, 0.38% active;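 active = below 25% or above 175%, edge rows of some plates excepted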;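 note: Galphao activated by GDP with aluminum fluoride before binding; 100% = wells without compound and 0% = beads without RGS; some results beyond the cut were filed as inactive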
Target sequence (O15492 whole entry, looked up): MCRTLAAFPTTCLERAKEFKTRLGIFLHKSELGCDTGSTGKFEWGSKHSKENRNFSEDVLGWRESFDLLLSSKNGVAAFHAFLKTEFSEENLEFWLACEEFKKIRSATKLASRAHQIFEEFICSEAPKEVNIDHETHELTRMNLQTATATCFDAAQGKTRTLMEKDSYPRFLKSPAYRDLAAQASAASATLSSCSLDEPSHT
Target sequence (P09471 whole entry, looked up): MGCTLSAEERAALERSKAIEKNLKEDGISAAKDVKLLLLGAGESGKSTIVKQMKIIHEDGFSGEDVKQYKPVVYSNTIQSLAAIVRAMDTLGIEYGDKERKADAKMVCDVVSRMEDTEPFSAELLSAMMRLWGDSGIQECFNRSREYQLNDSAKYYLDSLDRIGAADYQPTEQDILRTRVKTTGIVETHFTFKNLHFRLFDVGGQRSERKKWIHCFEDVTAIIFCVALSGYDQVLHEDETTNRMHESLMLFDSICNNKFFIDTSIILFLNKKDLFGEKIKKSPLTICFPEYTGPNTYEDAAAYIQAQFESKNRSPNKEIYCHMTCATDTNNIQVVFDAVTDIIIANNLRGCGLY
GALR2 ag: agonists of human galanin receptor 2 (GALR2) | O43603 | 140,000 tested, 0.48% active | activation, %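 (tested at 5 µM)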 | GALR2-expressing cells, agonist activation read-out;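 active = above mean plus 3 SD of all compounds, about 5% in these data, not always enough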;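 note: 0% = vehicle buffer wells and 100% = reference agonist at full effect; tested in CHO reporter cells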
Target sequence (O43603 whole entry, looked up): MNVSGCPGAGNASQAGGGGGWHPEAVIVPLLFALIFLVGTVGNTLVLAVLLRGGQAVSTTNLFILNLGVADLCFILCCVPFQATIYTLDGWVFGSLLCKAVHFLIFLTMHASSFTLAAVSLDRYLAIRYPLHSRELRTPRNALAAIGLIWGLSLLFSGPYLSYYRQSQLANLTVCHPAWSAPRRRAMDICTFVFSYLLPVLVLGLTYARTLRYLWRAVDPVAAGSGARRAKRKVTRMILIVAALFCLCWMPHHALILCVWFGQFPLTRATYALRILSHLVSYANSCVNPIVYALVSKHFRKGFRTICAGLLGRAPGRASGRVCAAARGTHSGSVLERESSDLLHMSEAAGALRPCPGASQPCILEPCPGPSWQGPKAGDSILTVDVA
Insulin prom inh cell count: second read-out of Insulin prom inh, no call of its own (marks repeat the call); normalized cell count, %; measured here: cell count, toxicity; reference of the scale not given here;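 cells exposed to compound for 48 h; stained nuclei by imaging scaled within each plate; lower means fewer cells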
HSV replic up primary fold: recorded beside HSV replic up, whose call it bears; fold increase; compound at 10 µM; measured here: primary screen fold increase 10 uM; tested in PC3 cells;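 GFP signal in the first replicate; 1 = infected wells without compound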
Active calls of the source: *; i = inactive; x = not tested or not shown.

Sample of the layout:
SMILES	PKD1 inh	Insulin prom inh	Insulin prom inh cell count	HSV replic up	HSV replic up primary fold	RGS16-Gao HTS	GALR2 ag
COc1ccc(Cn2nnc3c(=O)[nH]c(C4CCN(C(=O)c5ccccc5Cl)CC4)nc32)cc1	18	73*	34*	i	0.83	106	-1.5
COc1ccc(CCNC(=O)c2ccc(=O)[nH]c2)cc1	-11	46	91	i	0.94	99	x
CCOC(=O)c1ccc(N2C(=O)CC(N3CCCC(C)C3)C2=O)cc1 (stereo not given)	-2	13	98	i	1.1	97	-0.1
O=C(N/N=C/c1ccc(N2CCCCC2)o1)c1ccccc1	-4	36	114	i	0.96	81	-1.1
CC(=O)N1CCN(Cc2cc(=O)n3cc(Cl)c(C)c(Cl)c3n2)CC1	-3	-15	96	i	0.81	99	-0.7
CCOc1ccccc1N1C(=O)c2ccc(C(=O)O)cc2C1=O	2	0	95	i	0.98	93	-2.5
COc1ccc(C(=O)Nc2ccc(C(=O)NCCc3ccc(OC)c(OC)c3)cc2)cc1	5	x	x	i	0.9	91	x
Cc1c(Cl)cn2c(=O)cc(CN3CCN(c4ccc(F)cc4)CC3)nc2c1Cl	0	x	x	i	0.87	99	x
O=C(CNC(=S)NC(=O)c1ccccc1)c1ccccc1	2	34	136	i	0.95	102	-0.3
Cn1c(-c2ccc3c(c2)OCO3)cnc1NCc1ccccc1Cl	2	15	85	i	0.97	100	x
O=C(c1cc(-c2ccccc2)on1)N1CCN(C(=O)c2ccco2)CC1	-14	-183	38	i	0.79	101	-4.4
CC1(C)CC(=O)C2=C(C1)N(Cc1ccccc1)C(=O)C2(O)C(F)(F)F (stereo not given)	-11	36	154	i	0.97	103	-0.8
CCCNC(=O)c1cc2c3ccccc3n(C)c2s1	-8	x	x	i	0.88	100	-2.7
CN1CCN(NC(=O)c2cc(S(=O)(=O)Nc3ccc(Cl)cc3)ccc2Cl)CC1	x	x	x	i	1.2	98	x
CCSc1nc2c(sc3ccccc32)c(=O)n1C(C)C	4	-27	115	i	0.59	130	-0.8
CN(Cc1cn(C)nc1-c1cccc(Cl)c1)C1CCOCC1	-6	x	x	i	1	106	x
c1cc(CNC2=NCCCCC2)ccn1	-7	x	x	i	0.99	133	-1.1
NC(N)=Nc1nc2ccc(Cl)cc2c(=O)[nH]1	3	x	x	i	0.92	102	x
N#CCSc1nn(-c2ccc(F)cc2)c(=S)s1	-1	33	117	i	0.84	99	x

The whole of this part, from the start:
SMILES	PKD1 inh	Insulin prom inh	Insulin prom inh cell count	HSV replic up	HSV replic up primary fold	RGS16-Gao HTS	GALR2 ag
COc1ccc(Cn2nnc3c(=O)[nH]c(C4CCN(C(=O)c5ccccc5Cl)CC4)nc32)cc1	18	73*	34*	i	0.83	106	-1.5
COc1ccc(CCNC(=O)c2ccc(=O)[nH]c2)cc1	-11	46	91	i	0.94	99	x
CCOC(=O)c1ccc(N2C(=O)CC(N3CCCC(C)C3)C2=O)cc1 (stereo not given)	-2	13	98	i	1.1	97	-0.1
O=C(N/N=C/c1ccc(N2CCCCC2)o1)c1ccccc1	-4	36	114	i	0.96	81	-1.1
CC(=O)N1CCN(Cc2cc(=O)n3cc(Cl)c(C)c(Cl)c3n2)CC1	-3	-15	96	i	0.81	99	-0.7
CCOc1ccccc1N1C(=O)c2ccc(C(=O)O)cc2C1=O	2	0	95	i	0.98	93	-2.5
COc1ccc(C(=O)Nc2ccc(C(=O)NCCc3ccc(OC)c(OC)c3)cc2)cc1	5	x	x	i	0.9	91	x
Cc1c(Cl)cn2c(=O)cc(CN3CCN(c4ccc(F)cc4)CC3)nc2c1Cl	0	x	x	i	0.87	99	x
O=C(CNC(=S)NC(=O)c1ccccc1)c1ccccc1	2	34	136	i	0.95	102	-0.3
Cn1c(-c2ccc3c(c2)OCO3)cnc1NCc1ccccc1Cl	2	15	85	i	0.97	100	x
O=C(c1cc(-c2ccccc2)on1)N1CCN(C(=O)c2ccco2)CC1	-14	-183	38	i	0.79	101	-4.4
CC1(C)CC(=O)C2=C(C1)N(Cc1ccccc1)C(=O)C2(O)C(F)(F)F (stereo not given)	-11	36	154	i	0.97	103	-0.8
CCCNC(=O)c1cc2c3ccccc3n(C)c2s1	-8	x	x	i	0.88	100	-2.7
CN1CCN(NC(=O)c2cc(S(=O)(=O)Nc3ccc(Cl)cc3)ccc2Cl)CC1	x	x	x	i	1.2	98	x
CCSc1nc2c(sc3ccccc32)c(=O)n1C(C)C	4	-27	115	i	0.59	130	-0.8
CN(Cc1cn(C)nc1-c1cccc(Cl)c1)C1CCOCC1	-6	x	x	i	1	106	x
c1cc(CNC2=NCCCCC2)ccn1	-7	x	x	i	0.99	133	-1.1
NC(N)=Nc1nc2ccc(Cl)cc2c(=O)[nH]1	3	x	x	i	0.92	102	x
N#CCSc1nn(-c2ccc(F)cc2)c(=S)s1	-1	33	117	i	0.84	99	x
COC1(c2ccccc2)NC(=S)NN=C1c1ccccc1 (stereo not given)	0	37	112	i	0.91	94	0.4
CCOC(=O)CSC1=C(C#N)C(c2ccc(C)cc2)C(C(=O)OC)C(=O)N1 (stereo not given)	0	-19	161	i	0.91	96	0.8
CCOc1cccc(NC(=O)C2CC(=O)N(C)C(=Nc3ccccc3)S2)c1 (stereo not given)	10	-25	113	i	0.89	114	-0.8
N=c1n(CCN2CCOCC2)c2ccccc2n1CC(=O)c1ccc(Cl)c(Cl)c1	-8	x	x	i	0.73	96	1.6
COC(=O)c1cc2c(C(F)(F)F)nn(C)c2s1	x	x	x	i	1.1	96	x
Cc1csc2c(C#N)c(=O)c3c(n12)CCC3	-14	x	x	i	0.96	108	-1.4
COc1ccc(-c2nnc(SC(C)C(=O)Nc3ccc4c(c3)OCCO4)o2)cc1 (stereo not given)	-13	x	x	i	0.85	103	-0.5
CCc1cccc(CC)c1N(COC)C(=O)Cn1cnc2ccccc21	x	x	x	i	1.1	98	x
Cc1cc([N+](=O)[O-])ccc1N=Nc1c(N)[nH]n(-c2ccccc2)c1=O	9	11	100	i	0.89	107	x
CNC(=O)C1=C(C)NC(=S)NC1c1cccs1 (stereo not given)	-4	x	x	i	0.97	105	x
COc1cc([N+](=O)[O-])ccc1NC(=S)Nc1cccc(C(=O)O)c1	-15	10	108	i	0.86	102	-0.9
Cc1cc(=O)c2cc(C(=O)c3ccccc3)ccc2[nH]1	x	x	x	i	0.85	103	x
c1ccc(C2(CNc3ccccn3)CCCC2)cc1	2	19	115	i	1.1	100	-1.0
COc1ccc(C2C(C#N)=C(N)OC3=C2C(=O)CCC3)cc1OC (stereo not given)	-5	x	x	i	0.94	148	x
O=S(=O)(Cc1ccco1)Cc1nc(-c2ccc(Cl)cc2)cs1	x	x	x	i	1.1	98	x
CC1CCCC(C)N1CC(C)(C)NS(=O)(=O)c1ccc(Cl)cc1 (stereo not given)	3	26	11	i	0.98	99	-2.9
CCC(=O)Nc1cccc(NC(=O)c2cccc([N+](=O)[O-])c2)c1	-2	x	x	i	1	96	-3.2
Cc1cc(C)c2c(N)c(S(=O)(=O)c3ccccc3)sc2n1	-1	-27	119	i	0.93	103	0.2
O=C(NCc1ccco1)C1CC(c2ccc(Cl)c(Cl)c2)=NO1 (stereo not given)	-3	25	87	i	1	102	x
COc1ccc(CCNC(=O)[C@@H]2C[C@H]2c2ccccc2)cc1OC	4	-36	108	i	0.89	92	-0.8
CCOCCOC(=O)COc1ccc(N2C(=O)c3ccccc3C2=O)cc1	-8	-19	116	i	0.97	98	-1.7
CC(=O)c1ccc(NC(=O)C2CC(=O)N(Cc3ccccc3)C2)cc1 (stereo not given)	-7	-39	88	i	1	94	-1.1
Cc1cc(C)nc(NS(=O)(=O)c2ccc(NC(=O)CCC3COc4ccccc4O3)cc2)n1 (stereo not given)	-7	69	76	i	0.96	100	0.7
Cc1nc(N)sc1-c1csc(N(C)c2ccc(O)cc2)n1	1	-13	61	i	0.84	115	-2.0
CCOC(=O)c1ccc(N2C(=O)CC(SCC(N)C(=O)OCC)C2=O)cc1 (stereo not given)	2	4	94	i	0.95	77	-1.0
COC(=O)CCCC1=CC2=CC(=O)C(C)(OC(=O)c3cccs3)C(=O)C2=CN1CCc1ccccn1 (stereo not given)	x	x	x	i	1.1	102	x
O=S(=O)(NCc1csc(-c2cccnc2)n1)c1cccs1	2	x	x	i	0.98	102	-1.2
COc1ccc(C(=O)C2CCN(C(=S)Nc3ccc(F)cc3)CC2)cc1	12	50	111	i	0.99	104	x
COCCNC(=O)CCC(=O)NNc1nc2ccccc2c2nc(C)nn12	-2	7	100	i	0.97	96	x
Cc1sc2ncnc(N3CCCCC3C)c2c1C (stereo not given)	4	x	x	i	0.88	97	-0.9
COc1ccc(/C=C2\CCCC(C(=O)C(F)(F)F)=C2O)cc1	-2	-31	157	i	0.99	104	-0.4
Cn1c(SCc2ccc(C(C)(C)C)cc2)nnc1C1COc2ccccc2O1 (stereo not given)	x	x	x	i	1.3	98	x
O=C(NNc1nc(-c2ccccc2)cs1)c1ccc(F)cc1	-4	x	x	i	0.99	94	x
CCC1CCCCN1C(=O)CNCC1CCCO1 (stereo not given)	-7	x	x	i	1	110	x
CN(C)N=Nc1nc2c(c(=O)n(C)c(=O)n2C)n1C	x	x	x	i	1	98	x
COc1ccc(S(=O)(=O)NCC2CCCN(C(=O)c3sccc3C)C2)cc1 (stereo not given)	-3	x	x	i	1	108	x
COc1ccnc(Oc2ccccc2)c1C(=O)N/C=N/OCc1ccccc1	-4	x	x	i	0.9	100	x
O=C(NC1CC1)C1=C[C@H](C2CCCCC2)C[C@H](OCc2ccc(CO)cc2)O1	5	x	x	i	0.87	100	x
CCOC(=O)C1(Cc2cccc(Cl)c2)CCCN(C(=O)CCC(=O)N(C)C)C1 (stereo not given)	4	x	x	i	0.94	93	x
Cc1ccc(NC(=O)CSc2nnc(-c3ccccc3Br)o2)cc1C	6	18	93	i	0.81	99	-0.5
COc1ccccc1N(CC(=O)NCc1ccccc1)C(=O)CCC(=O)Nc1cc(C)ccn1	-4	5	128	i	0.57	104	-0.8
(list continues)
SMILES	PKD1 inh	Insulin prom inh	Insulin prom inh cell count	HSV replic up	HSV replic up primary fold	RGS16-Gao HTS	GALR2 ag
Cc1ccc(NC(=S)N(CCCN2CCN(C)CC2)Cc2cccs2)cc1C	-4	x	x	i	1	104	x
O=C(CSc1nnc(CNC(=O)c2cccs2)o1)NC1CCCC1	-4	22	112	i	0.99	100	-2.5
CC(=O)c1c(C)nc(-c2ccccc2)n1O	-7	9	121	i	0.95	95	-1.0
Cc1ccc(C(NC(=O)C(C)C)c2cc([N+](=O)[O-])c3cccnc3c2O)cc1 (stereo not given)	-4	-127	24	i	0.99	101	-3.2
Cc1ccc(NC(=O)Cn2c(=O)oc3cc(S(=O)(=O)N4CCC(C)CC4)ccc32)cc1C	-8	x	x	i	0.98	81	0.8
CCN(CC)CC(=O)NCc1cc(-c2ccc(OC)cc2)no1	-6	20	67	i	1	97	-0.7
COc1ccc2[nH]cc(C(=O)CNc3nc(C)cs3)c2c1	2	-7	106	i	0.94	111	-0.8
CCOC(=O)CCc1c(C)nc2ncnn2c1C	5	x	x	i	0.86	98	-3.1
Cc1ccccc1OCCn1cc(C(=S)N2CCN(C)CC2)c2ccccc21	0	-100	101	i	0.91	102	x
